AF4-AF9 inh: blocks AF4 peptide binding to human AF9 | actives 0.47% (n = 350,000) | inhibition, % at 10 µM | P42568 | AlphaScreen, biotin-AF4 peptide binding to FLAG-AF9;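 active = every replicate reaching a set inhibition limit, whatever the replicate mean, cut at about 25% in these data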;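 note: 0% = plate neutral control median and 100% = total signal loss; the record names both 10 and 1 µM as test concentration; the first replicate is given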
Target sequence (P42568 whole entry, looked up): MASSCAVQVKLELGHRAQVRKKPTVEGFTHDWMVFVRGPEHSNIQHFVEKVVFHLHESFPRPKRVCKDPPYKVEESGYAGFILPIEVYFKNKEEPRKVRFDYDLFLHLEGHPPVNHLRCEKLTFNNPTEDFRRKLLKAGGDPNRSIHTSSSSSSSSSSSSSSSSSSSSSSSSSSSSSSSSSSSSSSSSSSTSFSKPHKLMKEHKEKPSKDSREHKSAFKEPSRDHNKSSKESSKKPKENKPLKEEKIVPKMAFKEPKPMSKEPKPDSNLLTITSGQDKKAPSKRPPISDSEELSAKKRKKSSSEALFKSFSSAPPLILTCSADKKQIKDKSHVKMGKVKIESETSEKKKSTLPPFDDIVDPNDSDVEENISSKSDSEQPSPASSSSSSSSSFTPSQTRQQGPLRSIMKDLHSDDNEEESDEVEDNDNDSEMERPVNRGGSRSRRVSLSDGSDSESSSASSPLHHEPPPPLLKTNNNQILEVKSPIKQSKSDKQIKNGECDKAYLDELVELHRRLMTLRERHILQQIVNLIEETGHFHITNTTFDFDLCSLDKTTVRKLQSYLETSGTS
FGF22 binding: FGF22 (human) thermal shift binding. Q9HCT0. recombinant FGF22 thermal shift, SYPRO orange fluorescence; percent of sucrose octasulfate shift, DMSO zero. calls only at 9.99 µM. actives 1.5% (n = 340,000). AID 651658;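 active = melting point raised past a set limit in the mean and every replicate; three in four hits are not shown here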
Target sequence (Q9HCT0 whole entry, looked up): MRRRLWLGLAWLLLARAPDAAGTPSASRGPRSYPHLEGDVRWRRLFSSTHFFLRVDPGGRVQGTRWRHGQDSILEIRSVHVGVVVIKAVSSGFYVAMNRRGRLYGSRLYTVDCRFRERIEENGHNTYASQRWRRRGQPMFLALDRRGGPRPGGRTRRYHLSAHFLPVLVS
* = called active by the depositor; i = inactive; / = no result given. Some of the compounds tested, so the mix of outcomes need not match the whole.

Structure	AF4-AF9 inh	FGF22 binding
O=C(Cc1cccnc1)N1[C@H](CO)[C@@H]2c3ccccc3NC[C@@H]21	0.7	i
C[C@@H]1CCCCO[C@H](CN(C)C(=O)NC2CCCCC2)[C@@H](C)CN([C@H](C)CO)C(=O)c2cc(N(C)C)ccc2O1	6.3	i
COC(=O)Cc1nnn2c1[C@H](C)[C@H](C(C)(C)C)OCC2	-7.3	/
C[C@H](CO)N1C[C@H](C)[C@H](CN(C)Cc2ccc(Cl)c(Cl)c2)Oc2ccc(NC(=O)C3CCCCC3)cc2C1=O	0.2	i
O=C(C[C@@H]1C[C@H]2c3cc(NC(=O)NC4CCCC4)ccc3O[C@H]2[C@H](CO)O1)NCc1ccc(-c2ccccc2)cc1	1.0	i
C[C@H]1CN([C@@H](C)CO)S(=O)(=O)c2ccc(-c3cccc(F)c3)cc2O[C@H]1CN(C)S(=O)(=O)c1ccc(F)cc1	0.1	i
CNC[C@@H]1OCCCC[C@H](C)Oc2ccc(NC(=O)Nc3ccc(F)cc3)cc2C(=O)N([C@H](C)CO)C[C@@H]1C	5.1	i
COc1ccc(CN(C)C[C@H]2OCCCC[C@@H](C)Oc3ccc(NS(=O)(=O)c4c(C)noc4C)cc3C(=O)N([C@@H](C)CO)C[C@H]2C)cc1	4.2	i
CNC[C@H]1Oc2ccc(NS(=O)(=O)c3ccc(C)cc3)cc2CC(=O)N([C@@H](C)CO)C[C@@H]1C	1.0	i
C[C@@H]1CN([C@H](C)CO)C(=O)c2cc(N(C)C)ccc2O[C@@H](C)CCCCO[C@@H]1CN(C)C(=O)c1ccncc1	1.4	i
C[C@@H]1CN([C@H](C)CO)C(=O)Cc2cc(NS(=O)(=O)c3cn(C)cn3)ccc2O[C@H]1CN(C)S(=O)(=O)c1ccccc1	-2.1	i
Cc1ccc(-c2cnc3c(c2)C(=O)N([C@H](C)CO)C[C@H](C)[C@H](CN(C)C)O3)cc1	-2.1	i
C[C@H](CO)N1C[C@H](C)[C@H](CN(C)C(=O)c2cccnc2)Oc2ncc(Br)cc2C1=O	-1.2	i
CN(C)CC(=O)N[C@H]1C=C[C@@H](CC(=O)NCc2ccc(Cl)cc2)O[C@H]1CO	-2.3	i
CO[C@H]1CN(C)C(=O)c2ccc(NC(=O)CC(F)(F)F)cc2OC[C@H](C)N(C(=O)C2CCOCC2)C[C@H]1C	-2.4	i
O=C(N[C@@H]1CC[C@@H](CCn2cc(-c3cccnc3)nn2)O[C@@H]1CO)c1ccccc1F	4.1	i
O=C(C[C@H]1CC[C@H]2[C@@H](COC[C@@H](O)CN2Cc2ccc(Oc3ccccc3)cc2)O1)N1CCOCC1	0.3	i
O=C(Nc1ccccc1)N1C[C@H]2[C@@H](c3ccccc31)[C@@H](CO)N2CC1CCCC1	-1.0	i
COc1ccc(CN(C)C[C@@H]2OCCCC[C@H](C)Oc3ccc(NC(=O)Nc4ccc(OC)cc4)cc3C(=O)N([C@H](C)CO)C[C@H]2C)cc1	-0.7	i
C[C@@H]1CN([C@@H](C)CO)C(=O)c2cc(NC(=O)C3CC3)ccc2O[C@H]1CN(C)CC1CCCCC1	-7.5	i

Next part, starting with the last 2 of the part before.
Structure	AF4-AF9 inh	FGF22 binding
COc1ccc(CN(C)C[C@@H]2OCCCC[C@H](C)Oc3ccc(NC(=O)Nc4ccc(OC)cc4)cc3C(=O)N([C@H](C)CO)C[C@H]2C)cc1	-0.7	i
C[C@@H]1CN([C@@H](C)CO)C(=O)c2cc(NC(=O)C3CC3)ccc2O[C@H]1CN(C)CC1CCCCC1	-7.5	i
CCC(=O)N1C[C@@H](C)[C@@H](OC)CN(C)C(=O)c2cc(NC(=O)C3CCOCC3)ccc2OC[C@@H]1C	1.9	i
CO[C@H]1CN(C)C(=O)c2ccc(NC(C)=O)cc2OC[C@@H](C)N(CCC(F)(F)F)C[C@H]1C	-1.4	i
C[C@H](NC(=O)[C@@H]1N[C@@H]2c3ccc(-c4cncnc4)c(=O)n3C[C@@H]2[C@H]1CO)c1ccccc1	-0.5	i
CCCNC(=O)N1C[C@H]2[C@@H](c3ccccc31)[C@@H](CO)N2CC1CCCC1	-1.8	i
C[C@@H]1CN([C@H](C)CO)C(=O)Cc2cc(NC(=O)Nc3ccccc3)ccc2O[C@H]1CN(C)S(=O)(=O)c1ccc(F)cc1	-9.8	i
COc1ccc(-c2cnc3c(c2)C(=O)N([C@H](C)CO)C[C@@H](C)[C@@H](CN(C)C(=O)C2CCCCC2)O3)cc1	-4.6	i
C[C@@H]1CN([C@@H](C)CO)C(=O)Cc2cc(NC(=O)Cn3cnnn3)ccc2O[C@H]1CN(C)CC1CC1	0.1	i
C[C@@H]1CCCCO[C@@H](CN(C)C)[C@H](C)CN([C@H](C)CO)C(=O)c2cc(NC(=O)Nc3ccc(C(F)(F)F)cc3)ccc2O1	6.6	i
CO[C@H](CN(C)C(=O)Nc1ccc(F)cc1)[C@@H](C)CN(Cc1ccccc1Cl)[C@@H](C)CO	0.1	i
C[C@@H]1CCCCO[C@@H](CN(C)Cc2ccc(C(=O)O)cc2)[C@@H](C)CN([C@H](C)CO)C(=O)c2cc(NC(=O)c3ccccc3)ccc2O1	-3.1	i
CCNC(=O)C[C@@H]1CC[C@H]2[C@@H](COC[C@@H](O)CN2C(=O)C2CCCC2)O1	-1.7	i
C[C@@H]1CN([C@H](C)CO)C(=O)c2cc(NC(=O)Cc3ccccc3)ccc2O[C@@H]1CN(C)C(=O)NC1CCCCC1	-16	i
CCC(=O)N(C)C[C@H]1Oc2cc(-c3ccncc3)ccc2S(=O)(=O)N([C@H](C)CO)C[C@@H]1C	-1.9	i
CC(C)NC(=O)N1C[C@H]2[C@@H](c3ccccc31)[C@@H](CO)N2Cc1ccc(Cl)cc1	0.0	i
CC(C)NC(=O)Nc1ccc2c(c1)CC(=O)N([C@@H](C)CO)C[C@@H](C)[C@H](CN(C)Cc1ccccc1)O2	1.8	i
Cc1cccc(S(=O)(=O)N2C[C@H](O)COC[C@@H]3O[C@H](CC(=O)Nc4ccc(-c5ccccc5)cc4)CC[C@H]32)c1	1.9	i
C[C@@H]1CN([C@@H](C)CO)C(=O)c2cccc(NS(=O)(=O)c3cn(C)cn3)c2O[C@H]1CN(C)Cc1ccc(C(=O)O)cc1	-1.1	i
CCCC(=O)N1CC2(C1)CN(C(=O)Cc1ccccn1)[C@H](CO)c1[nH]c3cc(OC)ccc3c12	-1.9	i
COc1ccccc1-c1ccccc1[C@H]1[C@H](C#N)N(C(=O)C2CC2)[C@H]1CO	-0.9	i
COc1cccc(-c2ccc3c(c2)[C@@H]2[C@@H](CCN2C(=O)c2cccc(F)c2)[C@@H](CO)N3)c1	6.4	i
COCCNC(=O)C[C@H]1C[C@H]2c3cc(NS(C)(=O)=O)ccc3O[C@H]2[C@H](CO)O1	-2.4	i
COc1ccccc1CN1[C@@H]2Cn3c(cccc3=O)[C@H]1[C@@H](C(=O)N1CCc3ccccc3C1)[C@@H]2CO	0.2	i
CC(C)(O)C#Cc1ccc([C@@H]2[C@@H](CO)N3CCCCN(C(=O)c4ccncc4)C[C@H]23)cc1	-6.1	i
CC(C)NC(=O)N1CC[C@@H]2[C@H]1c1cc(-c3ccc(F)cc3)ccc1N(C)[C@H]2CO	14	i
CC(C)(C)S(=O)N1Cc2cc(C(=O)NCc3ccc4c(c3)OCO4)nc(-c3cccc(C#CCC4CCCC4)c3)c2[C@@H]1CCO (stereo not given in full)	4.3	i
C[C@H](CO)N1C[C@H](C)[C@@H](CN(C)C(=O)Nc2ccc(C(F)(F)F)cc2)Oc2ccc(NC(=O)Cc3cn(C)c4ccccc34)cc2C1=O	-1.1	i
C[C@@H]1CN([C@H](C)CO)C(=O)c2cccc(N(C)C)c2O[C@@H]1CN(C)Cc1ccc(-c2ccccc2)cc1	8.7	i
O=C(C[C@H]1C=C[C@H](NC(=O)C2CC2)[C@H](CO)O1)Nc1nccs1	-0.2	i
COc1ccc(NC(=O)N(C)C[C@@H]2OCCCC[C@@H](C)Oc3ccc(NS(=O)(=O)c4ccc(Cl)cc4)cc3C(=O)N([C@H](C)CO)C[C@@H]2C)cc1	-0.2	i
C[C@@H]1CCCCO[C@H](CN(C)S(=O)(=O)c2cn(C)cn2)[C@@H](C)CN([C@H](C)CO)C(=O)c2cc(NS(=O)(=O)c3cn(C)cn3)ccc2O1	-1.8	i
C[C@H](CO)N1C[C@H](C)[C@@H](CN(C)C(=O)c2ccccn2)Oc2ncc(-c3cccc(F)c3)cc2C1=O	-4.0	i
CO[C@@H]1CN(C)C(=O)c2cc(NS(C)(=O)=O)ccc2OC[C@@H](C)N(C(=O)C2CCCC2)C[C@@H]1C	0.7	i
O=C(C[C@H]1CC[C@H]2[C@@H](COC[C@@H](O)CN2Cc2ccccc2)O1)N[C@@H]1CCN(Cc2ccccc2)C1	3.4	i
CCC(=O)N(C)C[C@H]1Oc2cc(C#CC3CC3)ccc2S(=O)(=O)N([C@H](C)CO)C[C@@H]1C	-2.5	i
C[C@@H]1CCCCO[C@@H](CN(C)C(=O)Nc2ccc(F)cc2)[C@@H](C)CN([C@H](C)CO)C(=O)c2cc(NC(=O)Cc3ccccc3)ccc2O1	-2.2	i
COc1ccc2c3c([nH]c2c1)[C@H](CO)N(C(=O)Nc1ccc(F)cc1)CC31CCN(C(=O)Nc2ccc3c(c2)OCO3)CC1	-0.3	i
C[C@H]1CN([C@@H](C)CO)C(=O)c2cccc(NC(=O)C3CCOCC3)c2O[C@@H]1CN(C)Cc1ccccc1	2.4	i
Cc1noc(C)c1S(=O)(=O)N(C)C[C@H]1Oc2ccc(N(C)C)cc2CC(=O)N([C@@H](C)CO)C[C@@H]1C	2.4	i
C[C@@H]1NS(=O)(=O)c2c(F)cccc2O[C@@H]1c1ccccc1	-4.1	i
C[C@H]1CN([C@@H](C)CO)C(=O)c2cccc(NC(=O)Nc3ccccc3)c2O[C@H]1CN(C)C(=O)Nc1ccc(C(F)(F)F)cc1	-0.5	i

In the list so far, these contain a CF3 group.
Structure	AF4-AF9 inh	FGF22 binding
CO[C@H]1CN(C)C(=O)c2ccc(NC(=O)CC(F)(F)F)cc2OC[C@H](C)N(C(=O)C2CCOCC2)C[C@H]1C	-2.4	i
CO[C@H]1CN(C)C(=O)c2ccc(NC(C)=O)cc2OC[C@@H](C)N(CCC(F)(F)F)C[C@H]1C	-1.4	i
C[C@@H]1CCCCO[C@@H](CN(C)C)[C@H](C)CN([C@H](C)CO)C(=O)c2cc(NC(=O)Nc3ccc(C(F)(F)F)cc3)ccc2O1	6.6	i
C[C@H](CO)N1C[C@H](C)[C@@H](CN(C)C(=O)Nc2ccc(C(F)(F)F)cc2)Oc2ccc(NC(=O)Cc3cn(C)c4ccccc34)cc2C1=O	-1.1	i
C[C@H]1CN([C@@H](C)CO)C(=O)c2cccc(NC(=O)Nc3ccccc3)c2O[C@H]1CN(C)C(=O)Nc1ccc(C(F)(F)F)cc1	-0.5	i

Single values from above.
Value for CC(C)(O)C#Cc1ccc([C@@H]2[C@@H](CO)N3CCCCN(C(=O)c4ccncc4)C[C@H]23)cc1 in AF4-AF9 inh: -6.1
Value for C[C@H]1CN([C@@H](C)CO)C(=O)c2cccc(NC(=O)Nc3ccccc3)c2O[C@H]1CN(C)C(=O)Nc1ccc(C(F)(F)F)cc1 in AF4-AF9 inh: -0.5

Next section:
Value order: AF4-AF9 inh	FGF22 binding
- CN1CCN(C(=O)C[C@H]2CC[C@H](NC(=O)Cc3ccccn3)[C@H](CO)O2)CC1
 : -3.8	i
- C[C@H](CO)N1C[C@H](C)[C@@H](CN(C)S(C)(=O)=O)Oc2c(NC(=O)CCCCCC(=O)Nc3ccccc3N)cccc2C1=O
 : -2.1	i
- Cc1ccccc1S(=O)(=O)N(C)C[C@@H]1OCc2ccccc2-c2ccccc2C(=O)N([C@@H](C)CO)C[C@@H]1C
 : 2.8	i
- CCCNC(=O)N(C)C[C@@H]1Oc2cc(-c3ccc(C)cc3)ccc2S(=O)(=O)N([C@H](C)CO)C[C@H]1C
 : 0.5	i
- CO[C@@H]1CN(C)C(=O)c2ccc(NC(=O)C3CCC3)cc2OC[C@H](C)N(Cc2nccs2)C[C@H]1C
 : -1.1	i
- C[C@H](CO)N1C[C@H](C)[C@@H](CN(C)S(=O)(=O)c2ccc(Cl)cc2)Oc2c(NC(=O)CCCCCC(=O)Nc3ccccc3N)cccc2C1=O
 : -9.7	i
- C[C@H]1CN([C@@H](C)CO)C(=O)c2cccc(NS(=O)(=O)c3ccc(F)cc3)c2O[C@@H]1CN(C)CC1CCCCC1
 : -1.9	i
- O=C(C[C@@H]1C=C[C@H](NC(=O)C2CC2)[C@@H](CO)O1)Nc1ccccc1
 : -0.7	i
- C[C@@H]1CN([C@@H](C)CO)S(=O)(=O)c2ccc(C#CC3CCCC3)cc2O[C@H]1CN(C)C(=O)Cc1ccncc1
 : 6.2	i
- C[C@@H]1CCCCO[C@H](CN(C)C(=O)Cc2ccccc2)[C@@H](C)CN([C@@H](C)CO)C(=O)c2cc(NC(=O)c3ccncc3)ccc2O1
 : -2.8	i
- CO[C@@H]1CN(C)C(=O)c2ccc(NS(=O)(=O)c3cn(C)cn3)cc2OC[C@H](C)NC[C@@H]1C
 : -0.1	i
- COc1ccc2c3c(n(C)c2c1)[C@H](CO)N(C(=O)Nc1ccccc1F)CC31CCN(C(=O)c2ccccc2F)CC1
 : -0.5	i
- CCC(=O)Nc1ccc2c(c1)OC[C@@H](C)N(C(=O)C1CC1)C[C@@H](C)[C@H](OC)CN(C)C2=O
 : -0.4	i
- O=C(C[C@@H]1CC[C@@H](NC(=O)c2ccc3c(c2)OCO3)[C@@H](CO)O1)NCc1ccc(Oc2ccccc2)cc1
 : -4.9	i
- COCC#Cc1ccc2c(c1)O[C@H](CN(C)S(=O)(=O)c1cccc(F)c1)[C@H](C)CN([C@H](C)CO)S2(=O)=O
 : -0.5	i
- C[C@H](NC(=O)[C@@H]1[C@@H](CO)[C@@H]2Cn3c(ccc(-c4ccccc4F)c3=O)[C@H]1N2)c1ccccc1
 : -2.2	i
- COCC(=O)N1[C@@H](C#N)[C@H](c2ccccc2-c2ccccc2F)[C@@H]1CO
 : -1.0	i
